Hedgehog cleavage – Hh protein inhibition, biochemical readout – plate reader, single concentration, primary screen (AID 588832). Biochemical plate reader assay, Hedgehog inhibition; stronger effect = higher value. inhibition, % at 30.3 µM. 8,000 tested, under 10 active; in the data active means inhibition from about 57%;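 further: 0% = neutral control wells and 100% = positive control wells; cholesterol-driven self-cleavage of fly hedgehog protein by fluorescence polarization; read one hour after cholesterol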
Active calls of the source: *.

SMILES	Hedgehog cleavage
CCc1ccc(NC(=O)CC2C(=O)N(c3cccc(C)c3)C(=O)N2C2CC2)cc1 (stereo unspecified)	24
Cn1c(Cn2c(=O)sc3ccccc32)nnc1SCC(=O)NCc1ccc(F)cc1	7
CCOC(=O)c1c(NC(=O)CSc2cn(CC)c3ccccc23)sc2c1CCC2	5
O=C(c1ccco1)N1CCN=C1SCc1ccc(F)cc1	4
CCN(c1ccc(OC)cc1)S(=O)(=O)N1CCCC(C(=O)NC(C)c2ccccc2)C1 (stereo unspecified)	1
Cc1ccccc1OCCNc1cc(N2CC(C)NC(C)C2)ccc1[N+](=O)[O-] (stereo unspecified)	5
COc1ccccc1CNC(=O)CCn1c(=O)oc2ccccc21	2
COc1ccc(OCc2nnc3n2N=C(c2ccc(OC)cc2)CS3)cc1	8
O=C(NCC(c1cccnc1)N1CCN(c2ccccc2F)CC1)c1ccco1 (stereo unspecified)	7
O=C(NCC1COc2ccccc2O1)C1CCCN(S(=O)(=O)c2cccc3cccnc23)C1 (stereo unspecified)	-3
O=C1c2ccccc2C(Nc2ccc(Cl)cn2)N1c1cccnc1 (stereo unspecified)	5
Cc1cccc(-c2nnc(NC(=O)c3ccc(N4C(=O)CCC4=O)cc3)s2)c1	9
O=C(c1cc(-c2cccc(O)c2)on1)N1CCN(C(c2ccccc2)c2ccccc2)CC1	12
COC(=O)C1(C)NC(=O)c2ccccc2N1 (stereo unspecified)	15
CN(C(=O)COc1cc(=O)n(C)c2ccccc12)c1cccc(Cl)c1	17
COc1ccc(N2C(=O)C3CCCN3C2c2ccc(C)cc2)cc1 (stereo unspecified)	11
O=C(Cn1cc2c(n1)CCCC2)Nc1ccccc1Cl	20
Cc1ccc2c(c1)N(C(=O)CCC(=O)NCCCN1CCOCC1)CC(C)O2 (stereo unspecified)	7
COC(=O)c1cc(=O)n(Cc2ccco2)c(=Nc2ccc(F)cc2)s1	4
C#CCn1c(=NC(=O)c2cccs2)sc2cccc(OCC)c21	2
CCOc1ccc(NC2c3ccccc3C(=O)N2c2ccc(Cl)cn2)cc1 (stereo unspecified)	5
CCc1ccc(NC(=O)CSc2nc3ccccc3nc2N2CCCCC2)cc1	11
CCc1cccc(NC(=O)C2CCN(S(=O)(=O)c3ccc4[nH]c(=O)ccc4c3)CC2)c1	-2
COC(=O)C1CCN(C(c2cc(OC)c(OC)c(OC)c2)c2sc3nc(C)nn3c2O)CC1 (stereo unspecified)	14
CC(C)=CCc1c(O)cc2oc3c(CC=C(C)C)c(O)c(O)c(CC=C(C)C)c3c(=O)c2c1O	2
Next section
SMILES	Hedgehog cleavage
O=C(NCC1CCCO1)c1cc2c([nH]c3ccccc32)c(-c2ccc(F)cc2)n1 (stereo unspecified)	8
COc1ccc(C2=NS(=O)(=O)N(C)C(C(=O)N3CCCCC3C)=C2)cc1 (stereo unspecified)	11
COc1ccc2c(c1O)-c1ccccc1CCN(C)C2	7
CN(CCC#N)C(=O)Cn1nc(Cc2ccncc2)c2ccccc2c1=O	8
Oc1c(C(c2ccccc2)N2CCCCC2)sc2ncnn12 (stereo unspecified)	3
O=C(OCn1nnc2ccccc2c1=O)c1cccs1	7
Cc1oc2c(C)c3oc(=O)c(CCC(=O)NCCN4CCOCC4)c(C)c3cc2c1C	3
Cc1nc2ccccc2c2oc(C(=O)NCC3COc4ccccc4O3)cc12 (stereo unspecified)	17
CC1OC(OC2C(Oc3c(-c4ccc(O)cc4)oc4cc(O)cc(O)c4c3=O)OC(COC3O[C@@H](C)[C@H](O)[C@@H](O)C3O)C(O)C2O)C(O)C(O)C1O (stereo partly specified)	5
COc1ccc2c(C)c(CC(=O)N3C[C@H]4C[C@@H](C3)c3cccc(=O)n3C4)c(=O)oc2c1OC	7
O=C(CSc1nnc(Cc2cc(=O)[nH]c(=O)[nH]2)n1-c1ccccc1)N1CCCCC1	11
COC(=O)c1cc(=O)n(CCc2ccc(OC)c(OC)c2)c(=Nc2ccc(F)c(Cl)c2)s1	11
Cc1ccc(CNC(=O)[C@H](C)NC(=O)C2CCN(C(=O)[C@@H]3CCCN3C(=O)OC(C)(C)C)CC2)cc1	5
O=C(NCCSc1c[nH]c2ccccc12)c1ccc2c(c1)OCO2	6
O=C(Cn1ncc2c(=O)oc3ccccc3c21)NCC1COc2ccccc2O1 (stereo unspecified)	-5
Cc1cccc(CNC(=O)c2ccc3c(c2)N(C)CCS3)c1	7
Cn1c(Cn2c(=O)sc3ccccc32)nnc1SCC(=O)NCc1ccccc1Cl	8
O=C1CCc2cc(S(=O)(=O)N3CCCC3C(=O)NC3CCCCCCC3)ccc2N1 (stereo unspecified)	11
Cc1ccc(NC(=O)C2CCCN(S(=O)(=O)c3ccc4[nH]c(=O)ccc4c3)C2)cc1C (stereo unspecified)	0
Cc1ccc(C)c(NC(=O)CCC(=O)N2CCOc3ccccc32)c1	7
COc1ccc(-c2noc(N3CCC(C(=O)Nc4ccc(OC)c(OC)c4)CC3)n2)cc1	4
Cc1cc(C)n2nc(CNS(=O)(=O)c3ccc(C)c(C)c3)nc2n1	5
CC12CCC(=O)C=C1CCC1C2C(O)CC2(C)C1CCC2(O)C(=O)COC(=O)CCC1CCCC1 (stereo unspecified)	10
O=S(=O)(c1ccccc1)N1CCn2c(nc3ccccc32)C1	-3
COc1ccc(/C=C2\Oc3cc(OCC(=O)N4CCC[C@H]4C(=O)O)ccc3C2=O)c(OC)c1OC	5

Exported field by field: part of the list above.
Cc1ccc(NC(=O)C2CCCN(S(=O)(=O)c3ccc4[nH]c(=O)ccc4c3)C2)cc1C (stereo unspecified)
- Hedgehog cleavage: 0
O=S(=O)(c1ccccc1)N1CCn2c(nc3ccccc32)C1
- Hedgehog cleavage: -3
O=C(NCCSc1c[nH]c2ccccc12)c1ccc2c(c1)OCO2
- Hedgehog cleavage: 6

Another view of 4 compounds above:
COc1ccc(-c2noc(N3CCC(C(=O)Nc4ccc(OC)c(OC)c4)CC3)n2)cc1
  Hedgehog cleavage: 4

Cc1cc(C)n2nc(CNS(=O)(=O)c3ccc(C)c(C)c3)nc2n1
  Hedgehog cleavage: 5

CC12CCC(=O)C=C1CCC1C2C(O)CC2(C)C1CCC2(O)C(=O)COC(=O)CCC1CCCC1 (stereo unspecified)
  Hedgehog cleavage: 10

O=S(=O)(c1ccccc1)N1CCn2c(nc3ccccc32)C1
  Hedgehog cleavage: -3

Next compounds
SMILES	Hedgehog cleavage
COc1ccc(NC(=O)C2=C(C)C(=O)OC23CCC(C)CC3)c(OC)c1 (stereo unspecified)	6
COc1c(C(CC(C)C)OC(C)=O)ccc2c1C(=O)OCc1cc(C)cc(O)c1O2 (stereo unspecified)	-2
CCN=C(NCC)SC1CC(=O)N(c2ccc(OCC)cc2)C1=O (stereo unspecified)	-9
C=CCn1cc(C(=O)NCc2cccnc2)c(=O)c2cc(S(=O)(=O)N(CC)CC)ccc21	0
CCOc1ccc(C2N(c3ccc(OC)cc3)C(=O)C3CCCN32)cc1OC (stereo unspecified)	9
CCOC(=O)C1CCN(c2cc(=O)n(Cc3ccc(F)cc3)c(=O)[nH]2)CC1	-5
Cc1ccc(NC(=O)C2CCN(C(=O)N3CCOc4ccccc43)CC2)cc1	7
COCCn1c(SCC(=O)NCC2CCCO2)nc2c(c1=O)SC(C)C2 (stereo unspecified)	4
Cc1cc(C)c(S(=O)(=O)N2CCOC2CNC(=O)C(=O)NCc2ccco2)c(C)c1 (stereo unspecified)	-3
Cc1cc(Nc2ccc(F)cc2C)n2nc(C)nc2n1	15
CC1(C)Oc2cc3oc(=O)ccc3c3c2C2C1CCC(C)(O3)C2O (stereo unspecified)	0
C=CCn1c(CCCNC(=O)C(C)(C)C)nc2ccccc21	5
COc1ccc(S(=O)(=O)Cc2ccc(C(=O)NC3CCCC3)o2)cc1	8
CCC(C)[C@H](NC(=O)N1CC(=O)Nc2ccccc21)C(=O)N1CCC[C@H]1C(=O)O (stereo partly specified)	3
Cc1ccc(CCNC(=O)C2CCCN(S(=O)(=O)c3c(C)nn(C)c3C)C2)cc1 (stereo unspecified)	0
CN1CCN(C(=O)c2cn(C)c3ccc(S(=O)(=O)N(C)C4CCCCC4)cc3c2=O)CC1	21
COc1ccc(OC)c(CCNC(=O)CC2Oc3ccc(C)cc3NC2=O)c1 (stereo unspecified)	17
COc1cc2c(cc1OC)CN(C(=O)c1ccc3[nH]c(C)c(C)c3c1)CC2	9
Cc1oc2c(c(C)cc3oc(=O)c(CC(=O)NCCCN4CCCC4=O)c(C)c32)c1C	2
O=C(CCN1C(=O)c2ccccc2S1(=O)=O)Nc1ccc(C(=O)O)cc1	9
CCOC(=O)C1CCCN(C(=O)CCCn2nc(C)n3c(cc4sccc43)c2=O)C1 (stereo unspecified)	10
CCOC(=O)CSc1nnc(Cn2c(=O)sc3ccccc32)n1-c1ccccc1C	-3
C[C@@H](C(=O)NCCc1ccccc1)N1C(=O)N2CCc3c([nH]c4ccccc34)[C@@]2(C)C1=O	-5
Cc1ccc2c(c1)N(CC(=O)NCCc1ccc(Cl)cc1)C(=O)c1cccnc1O2	13
CCc1ccc(C2CC(c3ccc(Cl)cc3)n3nc(N)nc3N2)cc1 (stereo unspecified)	6
(list continues)
SMILES	Hedgehog cleavage
CCN1CCN(C(=O)c2ccc3c(c2)N(Cc2ccccc2)C(=O)c2ccccc2S3(=O)=O)CC1	4
CN(C)c1cccc(O)c1	2
CN1C(=O)CC(N2CCC(c3nc4ccccc4[nH]3)CC2)C1=O (stereo unspecified)	11
COc1ccc(C2=NS(=O)(=O)N(C)C(C(=O)N(C)Cc3ccccc3)=C2)cc1OC	15
Cc1ccnc(Nc2nc3ccccc3o2)n1	9
Cc1ccn2cc(CCNC(=O)C3CCCCC3)nc2c1	10
COc1ccc(C2=NS(=O)(=O)N(C)C(C(=O)NCc3ccc4c(c3)OCO4)=C2)cc1OC	7
COc1cc2c(cc1OC)C1=C(C#N)CC/C(=N\S(=O)(=O)c3ccccc3)N1CC2	19
CCN1CCCC1CNC(=O)Cn1ncc2c(=O)oc3ccc(C)cc3c21 (stereo unspecified)	9
CC(=O)Oc1ccc2c(c1)CCC1C2CCC2(C)C(OC(C)=O)CCC12 (stereo unspecified)	8
CN(CCCNC(=O)CCC(=O)N1CCOc2ccccc21)Cc1ccccc1	5
O=C(NCCc1ccccc1)c1ccc2c(c1)N(Cc1ccccc1)C(=O)CS2=O (stereo unspecified)	20
O=C(O)CCc1nnc2n(Cc3ccc(F)cc3)c(=O)c3ccccc3n12	4
COc1c(-c2ccc(O)c(O)c2)oc2cc(O)cc(O)c2c1=O	28
Cc1cc(C)c(S(=O)(=O)Nc2ccc(OCC(=O)O)cc2)c(C)c1	2
C=CC(C)(C)c1c2occc2c(O)c2ccc(=O)oc12	7
COc1ccc(CNC(=O)c2ccc3c(c2)N(C)CCS3)cc1	5
CCN(CC)S(=O)(=O)c1ccc(S(=O)(=O)N2CCN(CCC#N)CC2)cc1	13
CCOc1ccc(NC2c3ccccc3C(=O)N2Cc2ccco2)cc1 (stereo unspecified)	8
CCn1c(C2CC(=O)N(Cc3ccccc3)C2)nc2ccccc21 (stereo unspecified)	8
O=C1OCc2cc(NC(=O)C3COc4ccccc4O3)ccc21 (stereo unspecified)	20
Cc1c(C)c2ccc(OCC(=O)N3CC[C@@]4(O)CCCC[C@H]4C3)cc2oc1=O	7
COc1ccc2c(c1OC)C(=O)N1C2SC[C@H]1C(=O)NC1CC1 (stereo partly specified)	5
Cc1ccc(C2c3[nH]c4ccccc4c3C[C@H]3C(=O)N(c4ccccc4C(=O)N4CCC[C@@H]4C(=O)O)C(=O)N23)cc1 (stereo partly specified)	-2
Cc1cc(OCC(=O)NCC2CCC(C(=O)O)CC2)c2c(C)c(C)c(=O)oc2c1 (stereo unspecified)	7
Carrying on:
SMILES	Hedgehog cleavage
COCCN1Cc2cccc(C(=O)NCc3ccccn3)c2C1=O	8
CC(C)[C@H](NC(=O)N1c2ccccc2NC(=O)[C@@H]1C(C)C)C(=O)N1CCC(C(=O)O)CC1	8
COc1ccccc1NC(=O)C1(C)Cc2ccccc2C(=O)O1 (stereo unspecified)	10
COc1cccc(N2CCN(C(=O)c3cc4c(s3)-c3ccccc3OC4)CC2)c1	7
O=C(CCC(=O)N1CCOc2ccc(Cl)cc21)NCCN1CCOCC1	5
Cn1c(C(=O)Nc2ccc3c(c2)OCO3)cc2c(=O)n(C)c3ccccc3c21	20
COc1ccc(S(=O)(=O)N2CCCC2C(=O)Nc2ccc(C(C)=O)cc2)cc1 (stereo unspecified)	5
Cn1c(C(=O)N2CCC(C(=O)N3CCN(Cc4ccc5c(c4)OCO5)CC3)CC2)cc2sccc21	0
COc1ccc(-c2noc(N3CCC(C(=O)NCCCN4CCCC(C)C4)CC3)n2)cc1 (stereo unspecified)	15
COc1ccc2[nH]cc(CCNC(=O)COc3cc(C)cc4oc(=O)cc(C)c34)c2c1	11
CC(NC(=O)Nc1ccccc1)C(c1cccs1)N1CCOCC1 (stereo unspecified)	7
CCn1cc(C(=O)NCCC2=CCCCC2)c(=O)c2cc(S(=O)(=O)N(C)C)ccc21	25
Cn1c(=O)c2c(SCC(=O)N3CCCc4ccccc43)nc(CC(C)(C)C)nc2n(C)c1=O	6
O=C(Cn1ncc2c1-c1ccccc1OC2)Nc1ccc(Cl)cn1	10
COc1ccccc1S(=O)(=O)Cc1ccc(C(=O)NCCN(C)C)o1	12
C=C1C[C@]23C[C@@]1(O)CC[C@H]2[C@@]12C=C[C@H](O)[C@@](C)(C(=O)O1)[C@H]2[C@@H]3C(=O)O	9

Pulled by compound from the list above (5):
SMILES	Hedgehog cleavage
Cn1c(Cn2c(=O)sc3ccccc32)nnc1SCC(=O)NCc1ccccc1Cl	8
Cc1c(C)c2ccc(OCC(=O)N3CC[C@@]4(O)CCCC[C@H]4C3)cc2oc1=O	7
Cc1cc(Nc2ccc(F)cc2C)n2nc(C)nc2n1	15
C=C1C[C@]23C[C@@]1(O)CC[C@H]2[C@@]12C=C[C@H](O)[C@@](C)(C(=O)O1)[C@H]2[C@@H]3C(=O)O	9
Cc1ccc(C2c3[nH]c4ccccc4c3C[C@H]3C(=O)N(c4ccccc4C(=O)N4CCC[C@@H]4C(=O)O)C(=O)N23)cc1 (stereo partly specified)	-2

Only part of the results is shown (hit frequency here may not be typical).
